Screens deposited in PubChem BioAssay by Broad Institute.
rRNA inh HTS: reduced GFP signal of wild-type E. coli, primary screen, bacterial rRNA inhibitor project, GFP/RFP fluorescence, OD600, single point | AID 720706, 2013 | GFP signal change (wild-type ribosome), % (concentration not given with the values) | 350,000 compounds, 1.6% hits | E. coli WT GFP vs humanized-ribosome RFP mutants, 24 h; active compounds read low; DMSO median 0, no signal -100;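 active = significant combined selectivity score with lowered wild-type GFP, culture density cut under 30%, mutant RFP and density less affected; inactive = any of these conditions unmet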; note: one replicate is shown; some compounds called inactive have numbers as strong as hits
AF4-AF9 inh: inhibitors of AF4 peptide binding to AF9, primary screen, biochemical, AlphaScreen, biotin-AF4 peptide, FLAG-AF9, single point; inhibition, % at 10 µM; AID 651704, 2012; 350,000 compounds, 0.47% hits;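 active = every replicate reaching a set inhibition limit, whatever the replicate mean, cut at about 25% in these data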;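 note: 0% = plate neutral control median and 100% = total signal loss; the record names both 10 and 1 µM as test concentration; the first replicate is given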
Target sequence (P42568 whole entry, looked up): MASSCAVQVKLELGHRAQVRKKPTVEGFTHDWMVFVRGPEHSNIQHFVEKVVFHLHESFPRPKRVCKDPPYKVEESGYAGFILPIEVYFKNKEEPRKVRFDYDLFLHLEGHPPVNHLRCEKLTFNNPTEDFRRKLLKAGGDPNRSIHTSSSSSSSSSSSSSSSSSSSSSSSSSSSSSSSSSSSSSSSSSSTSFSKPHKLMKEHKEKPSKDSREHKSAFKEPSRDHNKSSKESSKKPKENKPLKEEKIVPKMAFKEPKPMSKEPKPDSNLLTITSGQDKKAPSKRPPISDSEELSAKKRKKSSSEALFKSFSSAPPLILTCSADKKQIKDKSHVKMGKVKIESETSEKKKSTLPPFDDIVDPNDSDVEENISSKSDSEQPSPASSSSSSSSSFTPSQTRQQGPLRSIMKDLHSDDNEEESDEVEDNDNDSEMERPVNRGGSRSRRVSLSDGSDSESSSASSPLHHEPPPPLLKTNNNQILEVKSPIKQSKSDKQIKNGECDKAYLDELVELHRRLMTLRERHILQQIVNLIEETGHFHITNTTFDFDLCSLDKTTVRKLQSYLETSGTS
rRNA inh HTS OD600: second read-out of rRNA inh HTS, no call of its own (marks repeat the call); OD600 change, %; measured here: OD600 growth;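 optical density of the mix in the first replicate; 0 = DMSO median and -100 = no signal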
rRNA inh HTS RFP: recorded beside rRNA inh HTS, whose call it bears; RFP signal change, %; measured here: RFP humanized mutant strains;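 first replicate; 0 = DMSO median and -100 = no signal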
Active calls of the source: *; & = joins results of further samples. Some of the compounds tested; the hit share may differ from the screen's.

rRNA inh HTS RFP,AF4-AF9 inh,rRNA inh HTS OD600,rRNA inh HTS,mol
-0.3,0.9,2.3,3.5,COC(=O)C[C@H]1CC[C@H]2[C@@H](COC[C@@H](O)CN2C(=O)Nc2ccccc2OC)O1
0.5,0.7,7.6,1.0,CC(C)NC(=O)N1C[C@H]2[C@@H](c3ccccc31)[C@H](CO)N2C(=O)NC(C)C
-0.7,-1.9,-4.6,0.2,CCCNC(=O)C[C@@H]1CC[C@@H]2[C@@H](COc3ccc(NC(=O)c4ccc5c(c4)OCO5)cc3C(=O)N2C)O1
0.8,-0.8,-4.3,4.1,C[C@H](CO)N1C[C@H](C)[C@H](CN(C)C(=O)Nc2ccc(C(F)(F)F)cc2)Oc2ccc(NS(=O)(=O)c3cccs3)cc2CC1=O
0.4,3.4,-68.5,-56.5,O=C(C1CCCC1)N1CC(=O)N2[C@H](CO)[C@@H](c3ccc(C#CC4CCCC4)cc3)[C@@H]2C1
0.3,0.6,-6.9,-2.4,CC(C)CC#Cc1ccc2c(c1)O[C@@H](CN(C)Cc1ccc3c(c1)OCO3)[C@@H](C)CN([C@H](C)CO)S2(=O)=O
-0.3,-2.3,0.2,0.2,COc1ccc(NC(=O)N(C)C[C@@H]2Oc3ccc(NS(=O)(=O)c4c(C)noc4C)cc3C(=O)N([C@@H](C)CO)C[C@H]2C)cc1
1.6,-0.2,-9.0,-1.7,CCCC#Cc1ccc([C@@H]2[C@@H](CO)N(C(=O)C3CC3)[C@H]2C#N)cc1
0.7,-3.0,7.1,8.6,COCC#Cc1cnc2c(c1)C(=O)N([C@@H](C)CO)C[C@@H](C)[C@H](CN(C)C(=O)Cc1ccncc1)O2
1.0,-1.0,0.1,1.4,O=C(c1cnccn1)N1CC(=O)N2[C@@H](CO)[C@@H](c3ccc(C#CC4CC4)cc3)[C@@H]2C1
4.7,-0.4,8.0,2.9,COc1cccc(-c2nc3nc(C)cc(C)n3c2NCc2ccccc2)c1
17.1,8.8,-25.1,-0.9,OC[C@@H]1[C@H](c2ccc(C3=CCCC3)cc2)[C@@H](CNC2CCCC2)N1CC1CC1
1.7,0.6,2.0,-3.8,Cc1ccc(S(=O)(=O)N(C)C[C@@H]2Oc3c(NC(=O)c4cnccn4)cccc3C(=O)N([C@H](C)CO)C[C@@H]2C)cc1
-2.2,0.8,-1.2,-4.8,COc1ccc(CNC(=O)C[C@@H]2CC[C@@H](NC(=O)CN(C)C)[C@H](CO)O2)cc1
-1.8,-3.5,-6.6,-4.9,COc1ccc(NC(=O)N(C)C[C@@H]2OCCCC[C@H](C)Oc3ccc(NS(C)(=O)=O)cc3C(=O)N([C@H](C)CO)C[C@@H]2C)cc1
0.5,1.5,-3.5,0.8,COc1ccc(CNC(=O)C[C@@H]2C=C[C@H](NC(=O)CN(C)C)[C@H](CO)O2)cc1
0.2,1.7,13.6,7.3,CC(C)Cn1c(N)c(C(=O)CSc2nnnn2-c2ccc(Cl)cc2)c(=O)n(C)c1=O
-0.5,-5.1,11.8,4.2,O=C1CC(O)C(Cc2ccccc2)N1 (configuration not stated)
0.6,-0.1,9.4,4.5,O=C(C[C@H]1CC[C@H]2[C@@H](COC[C@H](O)CN2Cc2cocn2)O1)NCc1cccc(F)c1
0.0,-2.0,3.9,3.1,C[C@H]1CCCCO[C@@H](CN(C)C(=O)c2ccncc2)[C@@H](C)CN([C@@H](C)CO)C(=O)c2cc(NS(=O)(=O)c3cn(C)cn3)ccc2O1
-0.7,-1.6,0.9,0.3,Cc1ccc(CN(C)C[C@@H]2OCc3cnnn3CCCC(=O)N([C@H](C)CO)C[C@@H]2C)cc1
1.5,0.2,-2.1,-1.9,O=C(C[C@@H]1CC[C@H](NC(=O)c2ccc3c(c2)OCO3)[C@H](CO)O1)NCc1ccc(Cl)cc1
1.4,-1.1,-0.8,1.2,CCCC#Cc1ccc([C@H]2[C@H](C#N)N(C(=O)C3CCC3)[C@H]2CO)cc1
-2.6&1.2,0.3,-3.4&8.1,1.9&-0.1,C[C@@H]1CN([C@H](C)CO)C(=O)c2c(c3ccccc3n2C)-c2ccccc2CO[C@@H]1CN(C)S(=O)(=O)c1cccs1
0.7,-0.9,-0.3,2.7,CCc1nc2ccc(C(=O)NCCN3CCNC3=O)cn2c1N(C)Cc1ccc(OC)cc1
7.4,-1.0,15.3,8.3,O=c1[nH]nc2c3ccccc3occ1-2
-1.8,0.0,13.7,0.6,CN1[C@@H]2c3ccc(-c4ccc(F)cc4)c(=O)n3C[C@@H]2[C@@H](CO)[C@@H]1C(=O)NCc1ccccn1
-2.2,-1.5,4.2,2.9,O=C(O)C[C@H]1C[C@H]2c3cc(NC(=O)CC4CC4)ccc3O[C@H]2[C@@H](CO)O1
1.3,1.6,4.6,4.2,COC(=O)[C@@]1(Sc2ccc(OC)cc2)CC(=O)N[C@@H]1c1ccccc1
-5.2,-2.5,0.0,2.6,COCC(=O)N(C)C[C@@H]1Oc2ncc(-c3cccc(OC)c3)cc2C(=O)N([C@H](C)CO)C[C@H]1C
1.4,0.6,-1.8,-0.4,C[C@H]1CN([C@@H](C)CO)S(=O)(=O)c2ccc(-c3cccc(F)c3)cc2O[C@H]1CN(C)C
-20.1,22.8,-82.8,-59.2,NC(c1csc(Nc2ccc(C(=O)c3ccccc3)cc2)n1)C1CCCCC1 (configuration not stated)
1.3,-2.6,19.9,6.8,CN1C(=O)c2cc(NC(=O)c3cccc(C(F)(F)F)c3)ccc2OC[C@@H]2O[C@@H](CC(=O)O)CC[C@@H]21
8.9,-6.4,18.6,16.3,COC(=O)c1ccc(Cn2c(C)c(C(=O)NCc3cccs3)sc2=O)o1
-0.2,0.5,-3.9,-2.8,Cc1noc(C)c1NC(=O)N(C)C[C@@H]1Oc2ccc(NC(=O)Nc3ccc4c(c3)OCO4)cc2C(=O)N([C@H](C)CO)C[C@H]1C
-0.3,-8.5,-0.7,3.7,CC(C)C#Cc1cnc2c(c1)C(=O)N([C@@H](C)CO)C[C@H](C)[C@@H](CN(C)C(=O)c1cnccn1)O2
-0.8,-2.1,-1.5,-1.7,COc1ccc(NC(=O)Nc2cccc3c2O[C@@H](CN(C)Cc2ccc(C(=O)O)cc2)[C@@H](C)CN([C@H](C)CO)C3=O)cc1
0.3,-3.7,-0.9,2.5,C[C@@H]1CN([C@H](C)CO)C(=O)c2cc(C#Cc3cccnc3)cnc2O[C@@H]1CN(C)Cc1cccnc1
0.0,2.3,-4.0,0.0,CCCNC(=O)N(C)C[C@H]1Oc2ncc(/C=C/c3ccccc3)cc2C(=O)N([C@@H](C)CO)C[C@H]1C
-0.6,10.4,-6.5,-3.0,CC(C)NC(=O)NCC[C@@H]1CC[C@@H](NS(=O)(=O)c2ccc(-c3ccccc3)cc2)[C@H](CO)O1
-0.5,-2.3,-3.8,1.1,CCCC(=O)Nc1ccc2c(c1)OC[C@H](C)N(C(=O)CN(C)C)C[C@@H](C)[C@@H](OC)CN(C)C2=O
-0.7,0.1,1.5,-0.1,CCCNC(=O)C[C@H]1CC[C@H]2[C@H](COc3ccc(NC(=O)c4cccc(OC)c4)cc3C(=O)N2C)O1
-1.3,-0.8,4.2,2.9,C[C@@H]1CN([C@H](C)CO)C(=O)c2cccc(NC(=O)c3ccncc3)c2O[C@H]1CN(C)C(=O)Nc1ccccc1
0.2,-3.8,10.1,4.9,O=C(O)C[C@H]1C=C[C@@H](NC(=O)CCN2CCCCC2)[C@@H](CO)O1
-0.3,1.1,-14.1,-0.8,C[C@@H]1CN([C@H](C)CO)S(=O)(=O)c2ccc(C#CC3CC3)cc2O[C@@H]1CN(C)C(=O)CC1CC1
2.5,-1.6,4.8,-2.9,CCCN=C1N(C)C[C@@H]2[C@@H]3C(=O)N(Cc4ccccc4)C(=O)[C@@H]3[C@](Cc3ccccc3)(C(=O)OC)N12
0.8,6.8,-2.9,-0.2,CN(C)c1ccc2c(c1)[C@@H]1C[C@@H](CC(=O)NCc3cccc(F)c3)O[C@@H](CO)[C@@H]1O2
0.4,-2.3,0.8,2.1,C[C@H]1CN([C@@H](C)CO)C(=O)c2cccc(NC(=O)C3CCOCC3)c2O[C@H]1CN(C)C(=O)Nc1ccc(C(F)(F)F)cc1
0.4,-4.6,9.6,0.2,CC(=O)Nc1ccc(-c2ccnc3c2CC(C(=O)NCc2ccc(N4CCN(C)CC4)cc2)O3)cc1 (configuration not stated)
3.0,9.5,14.4,3.0,CN1C(=O)c2cc(NC(=O)Cc3cccs3)ccc2OC[C@H]2O[C@@H](CC(=O)O)CC[C@H]21

The list goes on.
rRNA inh HTS RFP,AF4-AF9 inh,rRNA inh HTS OD600,rRNA inh HTS,mol
-4.1,-4.2,15.1,3.9,CN(C)CC(=O)N1CC2(C1)[C@H](c1ccccc1)[C@H](CO)N2C(=O)C1CCCC1
-0.8,0.3,5.7,0.9,CCC(=O)N1CCC2(CC1)CN(Cc1nccs1)[C@@H](CO)c1c2c2ccc(OC)cc2n1C
-1.3,-7.9,-28.6,-24.5,Cc1ccc(C2CC(c3ccccc3)=NN2c2ccc(S(N)(=O)=O)cc2)cc1 (configuration not stated)
-3.5,-1.3,-19.9,-1.7,CO[C@H](CN(C)S(=O)(=O)c1ccc(F)cc1)[C@H](C)CN([C@H](C)CO)S(=O)(=O)c1cccc(Cl)c1
4.5,1.6,-18.9,-3.6,N#C[C@@H]1[C@H](c2ccc(-c3ccc(F)cc3)cc2)[C@@H](CO)N1c1nc(-c2ccccc2)cs1
12.4,-4.5,9.8,4.7,CNC(=O)C[C@H]1CC[C@@H]2[C@H](COC[C@@H](O)CN2C(=O)c2ccc3c(c2)OCO3)O1
0.3,-1.2,1.3,-2.7,C[C@@H]1CCCCO[C@@H](CN(C)S(=O)(=O)c2cccs2)[C@H](C)CN([C@H](C)CO)C(=O)c2cc(NS(=O)(=O)c3cn(C)cn3)ccc2O1
3.1,-0.2,-7.8,-3.3,CC=Cc1ccc2n(c1=O)C[C@H]1[C@H](CO)[C@@H](C(=O)NCc3ccccc3)N(S(C)(=O)=O)[C@@H]21 (mixture of isomers)
13.1,-2.0,-49.0,-1.2,Clc1ccccc1NN(Cc1ccncc1)c1ccccc1Cl
25.4,13.4,-60.8,-4.7,CN(C)CCNC(=O)c1cccc(-c2cnc3c(NC=O)cc(-c4ccccc4F)cn23)c1
-3.8&2.4,-3.3&0.3,9.2&1.4,4.9&11.4,C[C@@H]1CN([C@H](C)CO)C(=O)c2cc(Br)cnc2O[C@H]1CN(C)Cc1ccccc1F
-0.7,1.7,2.7,-3.0,O=C(C[C@H]1CC[C@@H](NC(=O)c2ccc3c(c2)OCO3)[C@@H](CO)O1)NCc1ccc(F)cc1
1.8,3.7,11.3,5.8,O=C(c1cnccn1)N1CC(=O)N2[C@H](CO)[C@H](c3ccc(/C=C/c4ccccc4)cc3)[C@@H]2C1
-1.2,0.8,0.8,1.5,C[C@@H]1CCCCO[C@@H](CN(C)Cc2ccc3c(c2)OCO3)[C@@H](C)CN([C@H](C)CO)C(=O)c2cc(NC(=O)c3ccccc3)ccc2O1
5.0,-1.0,2.3,1.6,COc1ccc(S(=O)(=O)N(C)C[C@H]2Oc3c(NS(=O)(=O)c4ccc(C)cc4)cccc3C(=O)N([C@H](C)CO)C[C@@H]2C)cc1
5.3,-4.2,-5.1,-6.7,CCC(=O)N1CCC1(C)C(=O)Nc1cccc(Oc2ccccc2)c1 (configuration not stated)
0.7,-1.8,-4.7,-0.2,Cc1cccc(S(=O)(=O)N2[C@@H]3c4cccc(=O)n4C[C@H]2[C@H](CO)[C@H]3C(=O)NC2CCC2)c1
0.5,-0.8,10.6,7.4,CCOC(=O)C1(C)CCN1C(=O)c1ccc(N(C)C)cc1 (configuration not stated)
0.5,3.1,1.0,2.3,CCCC#Cc1ccc([C@H]2[C@@H](C#N)N(C(=O)CN3CCOCC3)[C@@H]2CO)cc1
-2.6,-1.8,4.0,0.0,Cc1noc(C)c1S(=O)(=O)N(C)C[C@@H]1OCCCC[C@@H](C)Oc2ccc(NC(=O)NC(C)C)cc2C(=O)N([C@H](C)CO)C[C@H]1C
1.5,1.1,-9.4,-6.8,COCC(=O)Nc1ccc2c(c1)C(=O)N(C)C[C@@H](OC)[C@H](C)CN(Cc1cccc(F)c1)[C@@H](C)CO2
-1.0,-0.7,-1.6,1.8,CO[C@H]1CN(C)C(=O)c2ccc(NC(C)=O)cc2OC[C@H](C)N(S(=O)(=O)c2cn(C)cn2)C[C@H]1C

Entries of single compounds, quoted from the list. Order of screens: rRNA inh HTS RFP	AF4-AF9 inh	rRNA inh HTS OD600	rRNA inh HTS
Listed for CC=Cc1ccc2n(c1=O)C[C@H]1[C@H](CO)[C@@H](C(=O)NCc3ccccc3)N(S(C)(=O)=O)[C@@H]21 (mixture of isomers) → 3.1	-0.2	-7.8	-3.3
Listed for COc1ccc(S(=O)(=O)N(C)C[C@H]2Oc3c(NS(=O)(=O)c4ccc(C)cc4)cccc3C(=O)N([C@H](C)CO)C[C@@H]2C)cc1 → 5.0	-1.0	2.3	1.6
Listed for O=C(c1cnccn1)N1CC(=O)N2[C@H](CO)[C@H](c3ccc(/C=C/c4ccccc4)cc3)[C@@H]2C1 → 1.8	3.7	11.3	5.8
Listed for Clc1ccccc1NN(Cc1ccncc1)c1ccccc1Cl → 13.1	-2.0	-49.0	-1.2
Listed for CCC(=O)N1CCC1(C)C(=O)Nc1cccc(Oc2ccccc2)c1 (configuration not stated) → 5.3	-4.2	-5.1	-6.7
